Source: PubChem BioAssay
miR-21 FLuc: miR-21 reporter, rising signal; 340,000 tested, under 10 active; HeLa miR-21 FLuc reporter, luciferase, 48 h; Potency, µM (top dose mostly 38.3 µM), inactives show at the top dose reporter change, positive = more light; active = well fitted rising curve with a large enough effect; inconclusive = small, poorly fitted or top-dose-only effect; inactive = no such curve, though single readings can be large or run the other way;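 also: % of control where 0% means no effect; miR-21 action dims this reporter so a rising signal means less miR-21 action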
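HeLa cells endogenously expressing miR-21, stably carrying CMV-driven firefly luciferase with a downstream miR-21 binding site, 2000 cells/well. Titrations up to approximately 40 uM, 48 hours; luciferase luminescence read.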
GLA inh pH 4.5: alpha-galactosidase A (human) inhibition, pH 4.5; purified enzyme, 4-MU-alpha-Gal fluorescence, pH 4.5; activity change, negative = inhibition, % at 105 µM; 230,000 tested, under 10 active; inconclusive = small, poorly fitted or top-dose-only inhibition, or a rising curve; inactive = flat fitted curve, though single readings scatter; no compound was filed as active;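 also: 0% = full activity with enzyme and -100% = basal without enzyme; dose as in the result columns while the protocol names 77 µM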
Rango dissoc inh: inhibitors of RanGTP-induced Rango-importin beta complex dissociation | AID 540253 | 340,000 tested, 0.071% active | Biochemical FRET Rango-importin beta, RanGTP-induced dissociation | Potency, µM (highest dose often 46.1 µM), inactives show at the top dose activity change, negative = inhibition | O95149+P62826; active means falling FRET ratio curve, often poorly fitted, with flat reads before Ran was added; inconclusive means other falling curves, or compound fluorescence or quenching; inactive means flat or rising ratio curve;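 also: potency is read from the fitted curve at half-maximal effect; % of control where 0% means no effect; nearly all actives have a fitted effect of over 45% in size; -100% = wells without RanGTP and RCC1; the record marks most hits as doubtful in a second field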
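Rango FRET biosensor (snurportin-1 IBB flanked by N-terminal EYFP and C-terminal CFP10) at 0.1 uM, with 0.25 uM importin beta in PBS, 1mM DTT, 0.02% Tween-20, 0.1% BSA. 0.6 uM Ran, 2mM GTP and 0.2 uM RCC1 were then added for 45 min at room temperature. Inhibition read as loss of FRET rise.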
Rango complex inh: inhibitors of Rango-importin beta complex formation. Potency, µM (top dose mostly 92.2 µM), without a hit: at the highest dose inhibition of complex formation. Rango CFP/YFP FRET sensor + importin beta, 45 min. 340,000 tested, 0.031% active. Q14974; active = rising FRET ratio curve, often small or poorly fitted; inconclusive = mostly compound fluorescence or quenching in the first reads; inactive = flat curves in all reads;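 also: potency is read from the fitted curve at half-maximal effect; 0% = DMSO wells and 100% = buffer wells lacking importin beta; nearly all actives have a fitted effect of over 15% in size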
Target sequence (Q14974 whole entry, looked up): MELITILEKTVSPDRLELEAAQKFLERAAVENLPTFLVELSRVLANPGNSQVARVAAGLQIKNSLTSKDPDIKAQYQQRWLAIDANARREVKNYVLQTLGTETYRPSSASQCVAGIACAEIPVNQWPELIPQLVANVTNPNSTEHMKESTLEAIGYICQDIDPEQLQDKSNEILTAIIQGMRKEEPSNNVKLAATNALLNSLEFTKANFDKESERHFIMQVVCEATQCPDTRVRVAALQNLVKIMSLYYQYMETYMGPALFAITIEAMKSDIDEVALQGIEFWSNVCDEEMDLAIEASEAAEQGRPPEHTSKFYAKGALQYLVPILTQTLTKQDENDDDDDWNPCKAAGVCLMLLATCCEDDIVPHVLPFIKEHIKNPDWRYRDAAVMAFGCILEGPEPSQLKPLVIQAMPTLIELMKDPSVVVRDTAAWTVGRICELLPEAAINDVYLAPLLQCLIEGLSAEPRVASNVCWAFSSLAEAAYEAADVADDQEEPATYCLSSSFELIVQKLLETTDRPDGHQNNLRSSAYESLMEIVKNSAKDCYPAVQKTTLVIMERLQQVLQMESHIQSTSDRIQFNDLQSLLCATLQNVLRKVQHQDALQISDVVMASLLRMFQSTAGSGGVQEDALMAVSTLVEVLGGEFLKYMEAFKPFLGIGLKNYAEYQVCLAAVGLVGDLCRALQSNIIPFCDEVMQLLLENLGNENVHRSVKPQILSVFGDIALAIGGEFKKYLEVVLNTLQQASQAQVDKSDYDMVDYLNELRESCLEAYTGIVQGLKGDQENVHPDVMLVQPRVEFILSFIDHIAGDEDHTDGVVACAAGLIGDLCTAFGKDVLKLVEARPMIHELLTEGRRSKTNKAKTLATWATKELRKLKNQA
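Inhibition scored from the CFP 486 nm/YFP 530 nm FRET ratio 45 min after adding 0.125 microM importin beta to 50 nM Rango biosensor preincubated 5 min with compound (room temperature, PBS with DTT, Tween-20, BSA). No-importin wells as positive control.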
* marks the source's active call; other numbers are inactive results; ? = inconclusive; nt = not tested or not shown; & = joins results of further samples.

miR-21 FLuc	GLA inh pH 4.5	structure	Rango dissoc inh	Rango complex inh
3%	-7	CCOC(=O)C1=C(C)NC(SCC(=O)O)=NC1c1ccccc1 (centres undefined)	-8%	?
-1%	-3	COc1cc(C(C)=O)ccc1OCC(O)CN1CCN(S(=O)(=O)c2ccccc2)CC1 (centres undefined)	-16%	3.7%
-7%	6	Cc1c(Nc2ncnc3nc[nH]c23)c(=O)n(-c2ccccc2)n1C	?	-3.3%
0%	nt	COc1ccccc1NC(=O)C(C)OC(=O)CCC1CCCCC1 (centres undefined)	-11%	1.6%
nt	nt	Cc1ccc(S(=O)(=O)NCCNC(C)c2ccc(Br)cc2)cc1 (centres undefined)	-7%	-4.1%
10%	nt	CCOc1ccc(-c2c(C(=O)N/N=C/c3c[nH]c4ccccc34)nnn2-c2nonc2N)cc1	1%	-0.3%
0%	4	CCN1CCCC(CO)(Cc2ccccc2)C1 (centres undefined)	-23%	-0.8%
-7%	3	C/C(=N\NC(=O)c1ccc2c(c1)OCO2)c1ccc(C(=O)O)s1	-6%	2.6%
0%	-2	CN(C(=O)COC(=O)c1ccc2c(c1)NC(=O)CS2)C1CCS(=O)(=O)C1 (centres undefined)	7%	1.7%
nt	nt	CC1CCCC(NC(=O)C2CCN(C(=O)Nc3ccccc3)CC2)C1C (centres undefined)	1%	?

Sorted by the number under Rango dissoc inh (falling): some entries from above.
miR-21 FLuc	GLA inh pH 4.5	structure	Rango dissoc inh	Rango complex inh
10%	nt	CCOc1ccc(-c2c(C(=O)N/N=C/c3c[nH]c4ccccc34)nnn2-c2nonc2N)cc1	1%	-0.3%
-7%	3	C/C(=N\NC(=O)c1ccc2c(c1)OCO2)c1ccc(C(=O)O)s1	-6%	2.6%
nt	nt	Cc1ccc(S(=O)(=O)NCCNC(C)c2ccc(Br)cc2)cc1 (centres undefined)	-7%	-4.1%
-1%	-3	COc1cc(C(C)=O)ccc1OCC(O)CN1CCN(S(=O)(=O)c2ccccc2)CC1 (centres undefined)	-16%	3.7%
0%	4	CCN1CCCC(CO)(Cc2ccccc2)C1 (centres undefined)	-23%	-0.8%

Next section:
miR-21 FLuc	GLA inh pH 4.5	structure	Rango dissoc inh	Rango complex inh
2%	nt	COc1ccc(-c2cc(C)no2)cc1S(=O)(=O)N1CCN(c2ccc([N+](=O)[O-])cc2)CC1	-15%	-1.8%
0%	nt	Cc1cccc(S(=O)Cc2ccc(C(=O)N3CCOCC3)o2)c1 (centres undefined)	-2%	-1.3%
nt	nt	O=C1NC[C@H](c2ccccc2)OC(=O)[C@H](Cc2ccc(F)cc2)C/C=C\C[C@@H]1CC(=O)N(CCO)Cc1ccccc1	15%	-2.7%
nt	nt	CC(C#N)OC(=O)c1cccnc1SCC(=O)Nc1ccc2c(c1)OCO2 (centres undefined)	17%	1.3%
-4%	-1	CCOc1ccc(Nc2nc(Cc3nnc(SCC(N)=O)o3)cs2)cc1	-1%	2.4%
-52%	-7	O=C1Nc2ccccc2/C1=N/c1sc2c(c1C(=O)NCCc1ccccc1)CCCC2	-14%	-4.8%
0%	nt	O=C(Nc1ccccc1C(=O)N1CCCCCC1)c1ccc(F)cc1	3%	3.5%
-23%	-5	COc1ccc(/C(N)=N/OC(=O)c2cccs2)cc1	4%	0.7%
-4%	-5	O=C(CCn1cnc2ccccc21)N/N=C/c1ccc(O)cc1	3%	0.9%
0%	?	COc1ccc(Cl)cc1NC(=O)CN1CCCC1	-9%	-0.1%

One compound at a time (already shown). Values in the order: miR-21 FLuc	GLA inh pH 4.5	Rango dissoc inh	Rango complex inh
Results for `COc1ccc(Cl)cc1NC(=O)CN1CCCC1` = 0%	?	-9%	-0.1%
Results for `O=C(CCn1cnc2ccccc21)N/N=C/c1ccc(O)cc1` = -4%	-5	3%	0.9%
Results for `COc1ccc(-c2cc(C)no2)cc1S(=O)(=O)N1CCN(c2ccc([N+](=O)[O-])cc2)CC1` = 2%	nt	-15%	-1.8%

Going on with the list:
miR-21 FLuc	GLA inh pH 4.5	structure	Rango dissoc inh	Rango complex inh
3%	-2	Cc1cc(C)n2nc(C(=O)N/N=C/c3ccccc3Cl)nc2n1	-7%	4.8%
-1%	nt	COc1cccc(C(C(=O)NC2CCCC2)N(Cc2cccnc2)C(=O)Cc2cccs2)c1 (centres undefined)	4%	-2.4%
-14%	?	COc1ccccc1/C=C/C(=O)NC(=S)N(C)C1CCCCC1	1%	-3.1%
2%	0	CCn1c(CCCc2ccc(OC)c(C)c2)n[nH]c1=S	-6%	-3.6%
-34%	-6	COc1ccc(NC2=NC(C)(CO)CS2)cc1 (centres undefined)	0%	-1.5%
nt	nt	COc1ccccc1C(=O)NC(=O)COc1ccc([N+](=O)[O-])cc1	-1%	2.4%
-7%	3	O=C(CCCc1nc2ccccc2s1)NC(c1ccccc1)c1ccccc1	-27%	-1.6%
6%	7	O=c1[nH]c(/C(Cl)=C/c2c(F)cccc2Cl)nc2cc(Cl)ccc12	0%	?
0%	1	Cc1ccc2nc(/C(C#N)=C\c3ccc([N+](=O)[O-])o3)[nH]c2c1	?	?
0%	5	O=C(O)c1cccnc1SC1CC(=O)N(CCc2ccccc2)C1=O (centres undefined)	7%	0.1%
-3%	-2	C=CCOC(=O)/C(=C/c1ccco1)NC(=O)/C=C/c1ccccc1	-7%	4.0%
-4%	2	CCc1cccc(C)c1NC(=O)CNCc1ccccc1	?	?
-2%	-7	CCc1ccccc1NC(=O)/C(=C/c1ccccc1)c1ccccc1	-10%	-0.3%
-4%	6	CCN(CC)CC(C)CNC(=O)CC(C(=O)N1CCc2ccccc21)n1ccnc1 (centres undefined)	3%	1.4%
-9%	3	CCCc1cc(=O)[nH]c(SCC(=O)c2cc(C)n(C3CC3)c2C)n1	1%	-0.9%
-6%	-6	Clc1ccc(Oc2cccc(/C=N/n3cnnc3)c2)cc1	3%	1.1%
-1%	nt	COc1ccc(CCN2CC(C(=O)NCc3c(C)n[nH]c3C)CCC2=O)cc1 (centres undefined)	8%	-1.4%
-6%	-5	O=C(O)c1ccccc1NS(=O)(=O)c1ccccc1C(F)(F)F	-10%	4.3%
-5%	nt	NC(=O)c1ccc[n+](CC(=O)c2ccc(NC(=O)c3ccccc3)cc2)c1	0%	-4.4%
-57%	3	CC(C)(C)C(=O)Nc1ccc2oc(-c3cc(F)c(F)cc3Cl)nc2c1	-8%	1.7%
2%	-5	C/C=C/c1ccc(OCC(=O)OCC)c(OC)c1	14%	3.9%
-1%	-22	COc1ccc(-c2[nH]ncc2CNC(C)c2ccccc2Cl)cc1F (centres undefined)	9%	2.4%
12%	nt	COc1ccc(NC(=O)CN2C(=O)NC(c3ccccc3)(c3ccccc3)C2=O)cc1	-7%	4.0%
-15%	7	CC(=O)c1ccc(NC(=O)C(Cc2ccccc2)NC(=O)c2ccco2)cc1 (centres undefined)	1%	-0.2%
-28%	9	CCCn1nnc(NC(=O)c2ccccc2Br)n1	1%	6.5%
-3%	-2	CN(C(=O)c1cccc(C#N)c1)c1nnc(C2CCOC2)s1 (centres undefined)	0%	2.6%
-3%	?	CCOC(=O)c1ccc2nc(Nc3nc4ccc(F)cc4s3)sc2c1	-6%	-0.7%
-7%	nt	O=C(COc1cccc2ccccc12)N/N=C/c1ccco1	1%	1.0%
-3%	2	Cc1cc(C(=O)N(CCC#N)Cc2cccs2)no1	10%	0.6%
nt	nt	CC(=O)c1cccc(NC(=O)CSc2n[nH]c(-c3ccncc3)n2)c1	0%	0.4%
4%	3	Cn1c(/C=C/c2cccc([N+](=O)[O-])c2)nc2ccccc2c1=O	-8%	4.2%
0%	nt	COc1ccc(NC(=O)CCNS(=O)(=O)c2ccccc2F)cc1S(N)(=O)=O	29%	-3.0%
-9%	nt	COc1cccc(NC(=O)CN(C)S(=O)(=O)c2ccc3[nH]c(=O)oc3c2)c1	3%	-4.3%
-10%	2	CC(=O)CSc1nnc(Cc2ccc([N+](=O)[O-])cc2)o1	3%	-1.2%
-6%	-1	OCCC1CN(C2CCN(c3ccccc3)CC2)CCN1Cc1ccc(F)c(F)c1 (centres undefined)	3%	3.4%
-38%	10	Cn1nnnc1SCc1nnc(-c2ccccc2Br)o1	13%	2.9%
-6%	8	C=CCNc1cnn(CC(C)=O)c(=O)c1Br	-10%	-0.1%
-6%	1	Oc1cc(-c2ccccc2)c2ccccc2c1	18%	-0.5%
-6%	nt	COC(=O)/C(C#N)=C/c1c(N2CCN(c3ccc(OC)cc3)CC2)nc2c(C)cccn2c1=O	?	0.3%
-35%	nt	CCN(CC)c1ccc(C(=O)OCC(=O)N2CCCC2)cc1	-11%	1.5%
-13%	2	Cc1ccc(-n2cc(C(=O)c3ccc(N4CCN(C)CC4)cc3)nn2)cc1Cl	0%	-2.1%
-10%	-8	Cc1[nH]c2ccccc2c1C1(O)C(=O)N(Cc2ccc3c(c2)OCO3)c2ccccc21 (centres undefined)	-3%	-1.6%
nt	nt	O=C(COC(=O)c1cc[n+]([O-])cc1)Nc1ccc(Cl)c(C(F)(F)F)c1	16%	0.3%
-2%	-15	CCN(CC)P(=O)(Nc1ccc(C)cc1Br)c1ccc(N(C)C)cc1NC(=O)c1ccco1 (centres undefined)	1%	-1.5%
-9%	7	COC(=O)c1ccc(NC(=S)N2CCN(C)CC2)cc1	-3%	-0.8%
nt	nt	CCOc1ccc(S(=O)(=O)Nc2cccc(C(=O)N(C)CC(=O)Nc3ccc(OC)cc3)c2)cc1	20%	-0.1%
0%	-11	COc1ccccc1NC(=O)CN1CCC(c2nc3ccc(C)cc3[nH]2)CC1	-7%	-1.8%
13%	-3	CC1CCN(CCc2nc3cc(NS(=O)(=O)c4ccccc4)ccc3n2C)CC1	-5%	0.0%
5%	nt	COc1ccc(C2=NS(=O)(=O)N(C)C(C(=O)Nc3ccc4c(c3)OCO4)=C2)cc1	-10%	5.3%
-2%	3	CCOC(=O)C1(CC2CCCCO2)CCN(Cc2nc(C(C)C)cs2)CC1 (centres undefined)	0%	1.5%

(more compounds)
miR-21 FLuc	GLA inh pH 4.5	structure	Rango dissoc inh	Rango complex inh
-67%	0	COc1ccc2oc(=O)c(C(=O)N3CCN(c4ccccc4C)CC3)cc2c1	-1%	?
-4%	4	Cc1ccc(-n2ccnc2SCC(=O)O)cc1C	-1%	-0.4%
?	7	CCC(=O)NC(=S)Nc1cccc(Cl)c1N1CCCCC1	?	-4.9%
-4%	-5	NS(=O)(=O)c1ccc(NC2(C(=O)O)CCCC2)cc1	14%	6.5%
-56%	nt	N#C/C(=C\c1ccc[nH]1)C(=O)Nc1ccccc1F	6%	-0.7%
-1%	-2	Cc1ccc2c(CN3CCOCC3)cc(=O)oc2c1	10%	0.5%
-6%	-2	O=C(NCC(=O)N(CC1CCCO1)C(C(=O)NC1CCCC1)c1cccnc1)c1ccco1 (centres undefined)	-10%	-0.3%
0%	-2	CCOc1cc(NC(=O)c2ccccn2)c(OCC)cc1NC(=O)c1ccccc1	15%	0.5%
-7%	nt	CN(C)C(CNC(=O)C1CCN(S(=O)(=O)c2cccc(Cl)c2Cl)CC1)c1ccccc1 (centres undefined)	-9%	-1.2%
-1%	-7&-5	CCCCC1=CC2=CC(=O)C(C)(OC(=O)CC)C(=O)C2=CN1CC(C)C (centres undefined)	?	?
nt	nt	CCC(CCc1ccccn1)C(=O)c1ccccc1 (centres undefined)	2%	0.8%
nt	nt	CC(NC(=O)COC(=O)c1ccc(N2CCCC2=O)cc1)c1ccc(F)cc1 (centres undefined)	-11%	15%
-4%	2	CCCN(CCC)C(=S)NC1CC2C=CC1C2 (centres undefined)	-6%	-2.5%
-1%	-3	O=C(c1cccc2ccccc12)N1CCN=C1SCc1ccc([N+](=O)[O-])cc1	-4%	1.9%
-9%	4	Cc1sc2nc(C3CC3)nc(NCCNS(=O)(=O)c3ccccc3)c2c1C	0%	1.5%
-5%	-7	CC(C)Cn1c2c(c(O)c(C(=O)Nc3ccc(F)cc3)c1=O)CCCC2	2%	1.0%
-11%	-12	Cc1ccc(OCC(O)Cn2nc(C)cc2C)cc1 (centres undefined)	-2%	-1.2%
?	nt	CCN(C(=O)CCN1C(=O)/C(=C/c2ccccc2)SC1=S)C1CCS(=O)(=O)C1 (centres undefined)	5%	0.9%
nt	nt	O=C(NCCC(=O)N(CCc1ccccc1)Cc1ccccc1)c1ccc(Br)cc1	0%	3.3%

A portion of the library. The share of hits here may be higher or lower than overall.
